High-throughput results from PubChem.
NS1 inh – inhibitors of influenza NS1 protein function; Potency, µM (titrated, usually from 46.1 µM), for inactives: top-dose activity, positive = more growth; 270,000 tested, 0.4% active; S. cerevisiae slowed by influenza A NS1, growth recovery by OD600; active means well fitted rising curve with a large enough effect; inconclusive means small, poorly fitted or top-dose-only effect; inactive means no such curve, though single readings can be large or run the other way; further: nearly all actives have a fitted effect of over 50% in size
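S. cerevisiae expressing influenza A NS1, grown in glucose, washed, then diluted 1:100 into pH 6.0 -URA galactose medium with 23 nl compound. Growth recovery read as OD600; NS1-free strain serves as control.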
LASV entry inh – inhibitors of Lassa virus binding or cell entry. Lassa virus pseudotype entry inhibition, cell reporter; control for the full effect not named in the record. Potency, µM (top dose mostly 37.9 µM), for inactives: at the top dose activity change, negative = inhibition, usual class: inhibitors. 300,000 tested, 1.2% active; active means well fitted inhibition curve with a large enough effect; inconclusive means small, poorly fitted or top-dose-only effect, or effect the other way; inactive means flat fitted curve, though single readings scatter; tested in HEK293 cells; further: on the % scale 0 is the no-effect control and ±100 the full control effect; nearly all actives have a fitted effect of over 50% in size; luciferase read-out
Cruzain inh noDet – blocks cruzain activity in detergent-free assay | P25779 | purified cruzain, Z-FR-AMC fluorescence, no detergent | Potency, µM, without a hit: max response, negative = inhibition, actives largely listed as inhibitors | 200,000 tested, 2.3% active | AID 1476;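 further: plate controls were enzyme without inhibitor for no effect and buffer without enzyme for full effect; nearly all actives have a fitted effect of over 40% in size; top concentration of the series not given in the record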
Target sequence (P25779 123-467 limits assumed): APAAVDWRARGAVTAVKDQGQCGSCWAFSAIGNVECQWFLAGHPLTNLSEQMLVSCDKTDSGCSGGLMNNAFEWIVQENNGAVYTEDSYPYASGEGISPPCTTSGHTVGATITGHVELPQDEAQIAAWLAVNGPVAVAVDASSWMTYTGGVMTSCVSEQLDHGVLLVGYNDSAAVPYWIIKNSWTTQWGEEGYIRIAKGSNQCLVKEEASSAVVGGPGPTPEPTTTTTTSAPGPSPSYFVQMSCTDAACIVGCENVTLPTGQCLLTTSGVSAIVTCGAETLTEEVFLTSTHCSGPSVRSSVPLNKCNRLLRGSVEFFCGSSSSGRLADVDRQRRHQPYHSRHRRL
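Detergent-free condition (0.00005% Triton X-100) in acetate buffer pH 5.5 with DTT. 1.5 nM enzyme and compound were pre-mixed 15 min, then 2 uM Z-FR-AMC substrate added; reaction progress from fluorescence change between first and third reads (60 s).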
StopGo reporter – lowers the luciferase signal of an FMDV 2A StopGo reporter; Potency, µM (doses to about 57.9 µM), for inactives: at the top dose signal change, negative = less light; AID 1159524; human cells with a luciferase reporter of 2A StopGo recoding; control for the full effect not named in the record; 410,000 tested, 1.2% active; active = well fitted falling curve with a large enough effect; inconclusive = small, poorly fitted or top-dose-only effect; inactive = no such curve, though single readings can be large or run the other way; tested in HEK293T cells; further: on the % scale 0 is the no-effect control and ±100 the full control effect; nearly all actives have a fitted effect of over 45% in size; luciferase light after 4 h
Cruzain inh Det – cruzain (T. cruzi) inhibition with detergent; P25779; purified cruzain, Z-FR-AMC fluorescence, 0.01% Triton; Potency, µM, for inactives: max response, negative = inhibition, hits mostly inhibitors; 200,000 tested, 0.43% active;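 further: plate controls were neutral wells for no effect and buffer without enzyme for full effect; nearly all actives have a fitted effect of over 40% in size; top concentration of the series not given in the record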
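Read-out: AMC fluorescence (360 nm excitation, 450 nm emission), four reads over 2 min, first-to-third difference used. Conditions: cruzain 1.5 nM, Z-FR-AMC 2 uM, pH 5.5 acetate, 5 mM DTT, 0.01% Triton X-100.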
RE007 growth inh – less growth of the S. pombe RE007 Vpr strain | 360,000 tested, 0.21% active | S. pombe RE007 Vpr strain, BacTiter-Glo ATP luminescence, 24 h; control for the full effect not named in the record | Potency, µM (doses to about 92.2 µM), inactives show at the top dose activity change, negative = less growth; active = well fitted falling curve with a large enough effect; inconclusive = small, poorly fitted or top-dose-only effect; inactive = no such curve, though single readings can be large or run the other way;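 further: on the % scale 0 is the no-effect control and ±100 the full control effect; nearly all actives have a fitted effect of over 50% in size; the assay follows cell death caused by Vpr and the record does not say whether a fall means rescue or toxicity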
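Fission yeast strain RE007, carrying one chromosomally integrated HIV-1 vpr copy, was seeded at OD 0.01 in PMG+AL medium with 23 nL pinned compound. After 24 h at 30 °C and 99% humidity, viability was read by BacTiter-Glo luminescence.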
MARV entry inh – inhibitors of Marburg virus binding or cell entry; Marburg virus pseudotyped entry inhibition, cell reporter; control for the full effect not named in the record; about a third of the inactives were read at about 46 µM; Potency, µM (titrated, usually from 37.8 µM), inactives show at the top dose activity change, negative = inhibition, actives largely listed as inhibitors; 300,000 tested, 1.8% active; active = well fitted inhibition curve with a large enough effect; inconclusive = small, poorly fitted or top-dose-only effect, or effect the other way; inactive = flat fitted curve, though single readings scatter; tested in HEK293 cells; about a fifth of its hits are not listed in these tables; further: on the % scale 0 is the no-effect control and ±100 the full control effect; luciferase read-out
SARS PLpro yeast – SARS-CoV PLP inhibition in yeast; S. cerevisiae expressing SARS-CoV PLpro, growth rescue; control for the full effect not named in the record; Potency, µM (titrated, usually from 32.9 µM), for the others: top-dose activity, positive = growth rescue; 330,000 tested, 0.19% active; AID 485353; active means well fitted rising curve with a large enough effect; inconclusive means small, poorly fitted or top-dose-only effect; inactive means no such curve, though single readings can be large or run the other way; further: 0% is about no effect; nearly all actives have a fitted effect of over 55% in size; growth read by luminescence after 48 h
Starred values were filed as active, the others as inactive; u = inconclusive; x = not tested or not shown; & = joins results of further samples; [ ] = dose if it differs, or a comment. Unless noted, the call rests on the fitted dose curve; in most records, active means well fitted curve in the direction sought with a large enough effect; inconclusive means small, poorly fitted or top-dose-only effect, or another doubt; inactive means no such curve, though single readings can be large; an effect the other way counts as inactive or inconclusive. Potency means the concentration at half of the fitted maximal effect.

Preview (two entries):
Under each structure: NS1 inh	LASV entry inh	Cruzain inh noDet	StopGo reporter	Cruzain inh Det	RE007 growth inh	MARV entry inh	SARS PLpro yeast
1: Cc1cccc(Cn2cnc3c(NS(C)(=O)=O)c(C)c(C)cc32)c1
  11%	8%	-7%	-15%	-1.0%	-4%	-11%	1%
2: COc1cc2c(=O)c(C(=O)c3ccc(C)c(C)c3)cn(Cc3ccccc3)c2cc1OC
  x	1%[46.1 µM]	-6%	0%	4.0%	x	9%[46.1 µM]	x

The list itself, from the first entry:
Under each structure: NS1 inh	LASV entry inh	Cruzain inh noDet	StopGo reporter	Cruzain inh Det	RE007 growth inh	MARV entry inh	SARS PLpro yeast
1: Cc1cccc(Cn2cnc3c(NS(C)(=O)=O)c(C)c(C)cc32)c1
  11%	8%	-7%	-15%	-1.0%	-4%	-11%	1%
2: COc1cc2c(=O)c(C(=O)c3ccc(C)c(C)c3)cn(Cc3ccccc3)c2cc1OC
  x	1%[46.1 µM]	-6%	0%	4.0%	x	9%[46.1 µM]	x
3: COc1ccc(-n2nc3c(N4CCC(C(=O)NCc5ccccc5)CC4)nnc(C)c3c2C)cc1
  12%	-29%[46.1 µM]	x	-2%	x	5%	-9%[46.1 µM]	-7%
4: Cc1ccc(C)c(NC(=O)COC(=O)c2ccc[n+]([O-])c2)c1
  x	u	x	-15%	x	-8%	6%	-10%
5: CCCCCSc1nc(O)cc(=O)[nH]1
  16%	8%	-1%	-19%	-1.8%	27%	u	0%
6: Cc1ccccc1NC(=O)c1cc(S(=O)(=O)N2CCOCC2)cn1C
  -3%	x	x	-17%	x	4%	x	0%
7: Nc1c(C(=O)Nc2ccc(Cl)c(Cl)c2)sc2nc(-c3cccnc3)ccc12
  15%	1%	-20%	x	0.1%	x	-3%	3%
8: Cc1ccsc1C(=O)Nc1cc(C(C)(C)C)nn1-c1ccccc1
  -9%	-21%	-7%	-19%	3.8%	-6%	18%	-4%
9: CC(C)(C)OC(=O)N1CCC(C(=O)Nc2cccc(C(=O)N3CCOCC3)c2)CC1
  x	u	x	-7%	x	-7%	x	-2%
10: N#Cc1nc(-c2cccs2)oc1NCc1ccccc1Cl
  18%	1%	u	0%	14%	32%	u	10%
11: Cc1ccc(NC(=O)CN2CCCC2)cc1Br
  2%	18%[46.1 µM]	x	-2%	x	-4%	u	-7%
12: COc1ccc(C(O)Cn2ccsc2=NC(C)=O)cc1 (stereo not given)
  2%	u	x	26%	x	7%	u	5%
13: CCCCOc1cc(C)nc(NCc2ccccc2)n1
  -35%	u	2%	-2%	-8.6%	-12%	u	u
14: CS(=O)(=O)c1ccccc1-c1nc(-c2cc(C(F)(F)F)cc(C(F)(F)F)c2)no1
  5%	7%	22%	-22%	-2.7%	14%	7%	5%
15: COc1cccc(-n2c(SCC(=O)NC(C)(C)C)nnc2-c2ccoc2C)c1
  -10%	-11%	5%	0%	2.3%	5%	-5%[46.1 µM]	0%
16: CCOc1ccc(NC(=O)CN(C)C(=O)c2ccc(N3CCCCC3)c([N+](=O)[O-])c2)cc1OCC
  x	u	x	-15%	x	17%	-19%	2%
17: COc1ccc2c(CC(=O)N[C@@H](Cc3c[nH]c4ccccc34)C(=O)O)cc(=O)oc2c1
  2%	4%	x	8%	x	3%	15%	1%
18: O=C(COC(=O)c1ccc(F)cc1F)c1ccc[nH]1
  x	10%	x	1%	x	0%	u	0%
19: COc1cc(NC(=O)NCC2CCN(Cc3ccccc3C)CC2)cc(OC)c1OC
  -2%	u	x	2%	x	8%	-15%	-1%
20: COC(=O)C1=C(C(=O)OC)[C@@H]2N(Cc3ccccc3)c3ccccc3[C@@]23C[C@@H](C(=O)OC)N(C(=O)CC(C)C)C3=N1
  2%	x	x	-30%	x	1%	x	2%
21: CCC(C)[C@H](NC(=O)Nc1ccc(S(N)(=O)=O)cc1)C(=O)O (stereo not given in full)
  0%	4%	4%	-20%	-2.1%	1%	u	11%
22: O=C(COc1ccc(=O)n(-c2ccccc2)n1)Nc1ccccc1
  -4%	x	-3%	-12%	-1.2%	13%	x	-1%
23: O=C(CCN1C(=O)c2ccccc2S1(=O)=O)NCc1ccco1
  4%	4%	5%	x	3.5%	-5%	4%	-4%
24: O=C(Cc1cccc(C(F)(F)F)c1)OCC(=O)N1CCN(S(=O)(=O)c2ccc(Cl)cc2)CC1
  x	12%	x	-6%	x	4%	1%[46.1 µM]	5%
25: Cc1cccc(C)c1N=C1NN=C(c2ccccc2F)CS1
  3%	0%	u	-20%	-6.2%	u	u	27%
26: Cc1ccccc1CC(=O)Nc1ccc(S(=O)(=O)N2CCN(C)CC2)cc1
  7%	7%	x	-11%	x	8%	u	5%
27: Cc1ccc(N(C(=O)CNC(=O)c2ccco2)C(C(=O)NCC2CCCO2)c2ccccc2)cc1 (stereo not given)
  -9%	10%	u	1%	0.5%	0%	u	7%
28: COc1ccccc1C(=O)NCC(=O)NC(C)CCc1ccccc1 (stereo not given)
  6%	u	x	1%	x	0%	-22%	u
29: O=C(Nc1cccnc1)C1OCCc2ccccc21 (stereo not given)
  -5%	-3%	0%	-11%	4.0%	-15%	-28%	1%
30: COC1=C(c2ccccc2)C(=O)c2ccccc2C1=O
  -59%	-17%	-3%	u	-2.5%	u	4%	-80%
31: COC(=O)C1=C(C)N(Cc2ccccc2)C(=NCCCCO)N[C@H]1c1cccc(C(F)(F)F)c1
  4%	x	x	-27%	x	-4%	x	2%&1%
32: CCN(CC)Cc1c(O)ccc2c1O/C(=C\C=C\c1ccccc1)C2=O
  8%	x	x	-1%	x	-2%	x	11%
33: Cc1cc(OCC(=O)Nc2ccc(C(=O)OC3CCCCC3)cc2)cc(C)c1Cl
  x	u	-10%	-24%	-1.5%	x	x	x
34: O=C(OCc1ccccc1)N1CCOCCN(C(=O)OCc2ccccc2)CCOCC1
  3%	-28%	x	-23%	x	2%	u	1%
35: O=S(=O)(c1cccc(Cl)c1)c1nnn2c1nc(NC1CCCCCC1)c1sccc12
  x	u	u	-18%	1.8%	x	x	x
36: COc1cccc2cc(C(=O)NCCc3c[nH]c4ccccc34)c(=O)oc12
  -1%	-29%	x	-2%	x	24%	u	0%
37: CCc1ccc(/C=N\NC(=O)c2ccc(Br)o2)s1
  -38%	u	-10%	33%[activator]	-12%	5%	u	-61%
38: Cc1ccccc1CN1c2ccccc2-c2nc(SCC(=O)NCCc3ccccc3)ncc2S1(=O)=O
  x	5%[46.1 µM]	0%	1%	3.2%	x	x	x
39: CC1=C(C(=O)Nc2ccccc2)C(c2coc3ccccc3c2=O)C2=C(CCCC2=O)N1 (stereo not given)
  12%	u	-2%	22%	-4.4%	13%	8%	18%
40: COc1cc(CNc2nnnn2C)ccc1OCc1ccc(F)cc1Cl
  1%	x	x	0%	x	3%	x	-3%
41: O=C(Cn1cc(C(F)(F)F)ccc1=O)NCc1ccc(F)cc1
  2%	x	x	72%[activator]	x	1%	1%[46.1 µM]	1%
42: O=C(Nc1cc(S(=O)(=O)N2CCCCC2)ccc1Cl)c1ccccc1NS(=O)(=O)c1ccc(F)cc1
  2%	3.5µM*	u	-3%	-19%	7%	u	-20%
43: CCN1CCN(c2ccc(NC(=O)CCc3c(C)nc4c(-c5ccccc5)c(C)nn4c3C)cc2)CC1
  -2%	x	-1%	u	-4.7%	-15%	0%	2%
44: CCCCSc1nc2c(cnn2-c2ccc(Cl)cc2)c(=O)[nH]1
  -1%	-5%	3%	0%	3.1%	-8%	-2%[46.1 µM]	5%
45: COCCN(C(=O)CCC(=O)Nc1nccs1)C(C(=O)NC(C)(C)C)c1ccc(Cl)cc1 (stereo not given)
  1%	1%	x	-5%	x	-5%	-9%[46.1 µM]	-1%
46: Cc1cccc(C)c1NC(=O)NC1(C(=O)N2CCCC2)CCCCC1
  -3%	x	x	-8%	x	-10%	16%[46.1 µM]	0%
47: O=c1cc(CSc2ccc(Cl)cc2)nc2nc[nH]n12
  -3%	10%	-10%	14%	2.0%	-12%	14%	8%
48: COc1ccc(C(=O)O/N=C(\N)c2ccc(Br)cc2)cc1
  -64%	u	x	68%[activator]	x	-17%	u	-8%
49: COc1ccccc1N1CCN(C(=O)c2cn(-c3ccccc3)nc2-c2cccnc2)CC1
  -12%	u	u	x	-2.9%	-16%	-18%	-2%
50: CC(NC(=O)COC(=O)/C=C/c1cccc(C(F)(F)F)c1)c1ccccc1 (stereo not given)
  14%	u	-30%	-6%	-2.0%	6%	u	21%
51: N/C(Cc1ccc([N+](=O)[O-])cc1)=N\OC(=O)COc1cccc2ccccc12
  2%	u	-9%	-14%	-6.0%	-10%	-12%	1%
52: COc1ccccc1CNC(=O)C1CC(=O)N(C2CCCC2)C1 (stereo not given)
  u	-6%	6%	x	2.7%	-16%	-25%	-8%
53: COc1cccc(N2CCN(S(=O)(=O)c3cn(C)cn3)CC2)c1
  3%	16%[46.1 µM]	x	-9%	x	1%	10%[46.1 µM]	8%
54: CCc1cccc(C)c1NC(=O)c1ccccc1
  x	7%[46.1 µM]	x	-19%	x	4%	12%[46.1 µM]	4%
55: Cc1nn(-c2ccccc2)c(C)c1C(=O)OC/C(O)=C(\C#N)c1nc2ccccc2[nH]1
  13%	4%	-17%	-4%	-0.1%	-7%	-25%	3%
56: Cc1cc(NC(=O)C2CCN(S(=O)(=O)c3c(C)noc3C)CC2)ccc1Br
  12%	4%[46.1 µM]	u	u	-1.7%	-1%	18%&18%[46.1 µM]	2%

Arranged by formula weight (ascending): 3 of the compounds above.
Under each structure: NS1 inh	LASV entry inh	Cruzain inh noDet	StopGo reporter	Cruzain inh Det	RE007 growth inh	MARV entry inh	SARS PLpro yeast
47: O=c1cc(CSc2ccc(Cl)cc2)nc2nc[nH]n12
  -3%	10%	-10%	14%	2.0%	-12%	14%	8%
55: Cc1nn(-c2ccccc2)c(C)c1C(=O)OC/C(O)=C(\C#N)c1nc2ccccc2[nH]1
  13%	4%	-17%	-4%	-0.1%	-7%	-25%	3%
45: COCCN(C(=O)CCC(=O)Nc1nccs1)C(C(=O)NC(C)(C)C)c1ccc(Cl)cc1 (stereo not given)
  1%	1%	x	-5%	x	-5%	-9%[46.1 µM]	-1%
